# Screening data: PubChem, ICCB-Longwood Screening Facility, Harvard Medical School
# S aureus helic: inhibitors of S. aureus replicative helicase, primary screen, biochemical, fluorescence unwinding readout; inhibition, %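 (tested at about 80 µM)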; replicative DNA helicase (DnaC/DnaB), Staphylococcus aureus; 0.05% of 120,000 active; purified S. aureus helicase, fluorescence unwinding assay; about half of the hits fall short of the stated cut;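 active = both duplicates at 50% or more, or one of them with a favoured structure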;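 also: 0% = mean of negative control wells and 100% = mean of positive control wells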
# MgrA DNA FP: S. aureus MgrA activity modulators, primary screen, biochemical, S. aureus Newman, fluorescence polarization; MgrA-DNA binding; inhibition, %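 (about 10 µg/mL by stock and volumes)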; 0.13% of 84,000 active; AID 602314, 2012;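 active = above 50% in either of two replicates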;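 also: 0% = protein plus DNA without compound and 100% = DNA alone without protein; higher means less MgrA bound to DNA so lower polarization; one replicate is shown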
# The depositor's hits bear a star; . = no result given; & = joins results of further samples.
S aureus helic,MgrA DNA FP,canonical_smiles
4,.,O=C1c2ccccc2C(=O)N1/N=C/c1cn(-c2ccccc2)nc1-c1cc2ccccc2o1
15,.,COc1ccc(C2SCC(=O)N2C)cc1 (stereo not given)
12,2.2,Cc1cccc(C)c1N1CCc2cn[nH]c21
7,0.4,CC1CCc2c(sc3nc(SCC(=O)Nc4c[nH]c(=O)[nH]c4=O)[nH]c(=O)c23)C1 (stereo not given)
-4,.,Cc1ccccc1NC(=O)Cc1nc(CSc2nnnn2C)cs1
15,3.9,COC(=O)c1c(NC(=O)C(C)Oc2ccccc2)sc2c1-c1ccccc1CC2 (stereo not given)
.,1.6,Cc1ccc(NC(=O)Oc2ccc(F)cc2Cl)cc1Cl
1,0.0,CCN(CC)C(=O)Cn1cc(SCC(=O)N2CCCCC2)c2ccccc21
15,-2.9,O=C(C1COc2ccccc2O1)N1CCc2ccccc2C1 (stereo not given)
-21,-1.1,OC1(c2ccc(-c3ccccc3)cc2)COc2ccccc2O1 (stereo not given)
8,-1.0,CN(C)c1ccc(C(N2CCOCC2)P(=O)(c2ccccc2)c2ccccc2)cc1 (stereo not given)
11,.,COC(=O)C1=NC=CN2CCS(=O)(=O)N=C12
10,.,COC(=O)c1ccc(CN2CCCC(c3nc4ccccc4[nH]3)C2)o1 (stereo not given)
9,-0.1,CCC(C)NC(=O)C1c2ccccc2C(=O)N2CCc3ccccc3C12 (stereo not given)
13,2.6,O=C1c2cccc3cccc(c23)N1Cc1ccc(F)cc1Cl
18,.,CCC1CN(C(=O)Nc2ccccc2)c2ccccc2O1 (stereo not given)
6,-0.8,CCOC(=O)Cn1c(=O)oc2cc(S(=O)(=O)N(C)CCC#N)ccc21
0,.,COC(=O)Cn1c(=N)n(CCN2CCOCC2)c2ccccc21
7,.,Cc1nc2sccn2c(=O)c1S(=O)(=O)N1CCC(Cc2ccccc2)CC1
7,-2.2,CCn1c(=O)c2cc(C(=O)NCC3CCCO3)sc2c2ccccc21 (stereo not given)
21,1.0,Nc1nn(S(=O)(=O)c2ccc(Br)cc2)cc1-c1ccccc1
-5,.,O=C(CNc1ccccc1)N/N=C/c1ccc(F)cc1
.,21,O=[N+]([O-])c1ccc(N/N=C/c2ccc(-c3cc(C(F)(F)F)ccc3Cl)o2)cc1
12,6.0,O=S(=O)(Nc1cc(Sc2cccc3cccnc23)c(O)c2ccccc12)c1ccc(Cl)cc1
.,0.8,O=C(/C=C/C(=O)Nc1cccc(O)c1)Nc1cccc(O)c1
-28,.,CCOc1ccc(NS(=O)(=O)c2ccc3[nH]cc(C(=O)NC(C)CC)c(=O)c3c2)cc1 (stereo not given)
.,1.9,O=c1[nH]c(O)c(/C=C2\C=Nc3ccccc32)c(=O)[nH]1
-14,.,Cc1ccc(C(=O)C(C)Sc2nc3ccccc3o2)cc1 (stereo not given)
3,0.6,COC(=O)c1c(NC(NC(C)=O)(C(F)(F)F)C(F)(F)F)sc2c1CCN(C)C2
.,0.1,COc1ccc(NC(=O)C2CCCCC2)cc1OC1CCCC1
0,2.0,O=C(Nc1ccc(S(=O)(=O)Nc2ccccc2)cc1)N1CCCC1
.,-1.5,O=C(O)c1nnn(-c2ccccc2Oc2ccc(Cl)cc2Cl)c1-c1ccccc1
2,-3.0,Cc1cc[n+](CCOc2ccc(N)cc2)cc1
-1,.,Cc1ccc(CN(C)C(=O)c2ccc(N3C(=O)c4ccccc4C3=O)cc2)o1
-13,0.8,O=C(NCC1CCCO1)c1ccc2c(c1)N(Cc1ccc(F)cc1)C(=O)/C(=C/c1ccccc1)S2 (stereo not given)
.,-0.9,Cc1nn(-c2ccccc2)c2[nH]c(=O)c(C#N)c(-c3cccs3)c12
1,.,CS(=O)(=O)c1ccc(Cl)c(NC(=O)c2ccc3c(=O)n4c(nc3c2)CCC4)c1
14,.,O=C1c2ccccc2C(=O)N1CSc1nnc(Cc2cccs2)n1CCc1ccccc1
11,.,Cn1c(CNCc2ccccc2)nc2ccccc21
10,.,CCOc1ccc(OCC)c(S(=O)(=O)N(C)C2CCCCC2)c1

# In the list so far, two have a cyano group.
S aureus helic,MgrA DNA FP,canonical_smiles
6,-0.8,CCOC(=O)Cn1c(=O)oc2cc(S(=O)(=O)N(C)CCC#N)ccc21
.,-0.9,Cc1nn(-c2ccccc2)c2[nH]c(=O)c(C#N)c(-c3cccs3)c12

# (list continues)
S aureus helic,MgrA DNA FP,canonical_smiles
-22,-0.5,CC(C)(C)c1ccc(C(=O)OCCN2CCCC2=O)cc1
-19,.,O=S(=O)(Nc1ccccn1)c1ccc(Oc2ccccc2)cc1
10,-0.6,COc1ccc(NC(=O)CC(=O)c2ccccc2)cc1
-4,-1.3,Cc1ccccc1C(=O)N(C)Cc1ccccc1
-6,.,C/C(=N\N=C(N)N)c1ccc(-n2ccnc2)cc1
-18,.,CC1(C)Cc2ccccc2C(Nc2ccc(S(N)(=O)=O)cc2)=N1
.,9.2,N#CSc1ccc2nc(-c3c(F)cccc3F)oc(=O)c2c1
-1,-0.5,CN1CCN(S(=O)(=O)c2cccc(S(=O)(=O)c3ccc(Cl)c(Cl)c3)c2)CC1
.,1.7,Cc1cccc(NC(=S)NNC(=O)CSCc2cccc3ccccc23)c1
.,0.2,CC(=O)Nc1ccc(S(=O)(=O)Nc2nc(C)cc(-n3nc(C)cc3C)n2)cc1
2,2.4,O=C(Nc1cccc(NC(=O)C2COc3ccccc3O2)c1)c1ccccc1 (stereo not given)
12,-1.2,COc1cccc(NC(=O)N2C3CCC2CC(O)(c2cccnc2)C3)c1 (stereo not given)
9,.,Cc1nc(SCc2nnc(-c3ccccc3)o2)c(C(N)=O)c(C)c1C
6,0.7,NC(=O)CSc1nc2c(sc3ccccc32)c(=O)n1-c1ccccc1
2,-0.7,Cc1ccc(C(=O)NC2CC2)cc1N1CCCC1=O
.,-1.9,CSc1nc(N)n2nc(C3CC3)cc2n1
-5,.,O=C(CSc1ncccn1)N1CCN(C(=O)c2ccco2)CC1
9,-0.4,CCSC(=S)NC1CCS(=O)(=O)C1 (stereo not given)
2,-2.4,CCC(C#CCN1CCOCC1)OC(C)=O (stereo not given)
-6,.,COc1ccc(-c2noc(CN(C(=O)C(C)(C)C)C(C)C)n2)cc1
12,7.3,Cc1ccc(SCC(=O)N2CC(=O)Nc3ccccc32)cc1
5,-1.6,CCOC(=O)C1(c2ccccc2)NC(c2ccc(O)c(OC)c2)C2C(=O)N(C)C(=O)C21 (stereo not given)
10,0.7,COc1cccc(C(=O)CCN2CCC(c3ccccc3)C2)c1 (stereo not given)
27,.,CCOC(=O)c1ccc2c(c1)nc(C(C)O)n2CC(=O)Nc1ccc(N(CC)C(C)C)cc1 (stereo not given)
3,-0.5,[O-][n+]1onc2cc(Cl)ccc21
2,.,Cc1ccc(NC(=O)Cn2nc(C(N)=O)c3ccccc3c2=O)cc1
.,-1.9,CC(O)C(NC(=O)c1ccccc1)c1ccccc1 (stereo not given)
7,.,Cc1oc(-c2cc(Cl)ccc2Cl)cc1-c1nn2c(C)nnc2s1
-20,.,COc1ccc(C2C(C#N)=C(N)N(c3ccccc3)C3=C2C(=O)CC(C)(C)C3)cc1OC (stereo not given)
.,2.6,COc1ccc(-c2nc3ccccc3c(=O)n2NC(=O)c2ccccc2Br)cc1OC
11,-0.2,Cn1nc(C(=O)N2CCCN(Cc3ccccc3Cl)C2)c2c1-c1ccccc1OC2
.,-1.0,O=C1NC(=Nc2ccccc2)SC1Cc1ccc(Cl)cc1 (stereo not given)
-7,.,O=C(O)CSCC(=O)N1CCN(c2ncccn2)CC1
8,.,CCn1c(C)nc2cc(C(=O)N=Nc3c(O)[nH]c4ccccc34)ccc21
-10,.,Cc1ccc(/C=C2/SC(=S)N(c3ccc(S(N)(=O)=O)cc3)C2=O)o1
5,.,COc1ccc(-c2noc(CN3CCC(C(=O)NCCC4=CCCCC4)CC3)n2)cc1OC
15,-0.6,O=C(Nc1ccc(S(=O)(=O)N2CCCCCC2)cc1)C1CC(=O)N(c2ccccc2)C1 (stereo not given)
0,.,COc1cc(NC(=O)c2c(-c3ccccc3Cl)noc2C)c2ncccc2c1
-21,.,CC(=O)NCc1nc2ccccc2n1Cc1ccccc1C
11,0.9,CCn1c(C)nc2cc(C(=O)O)ccc21
.,-3.0,CCC(=O)c1c[nH]c(C(=O)NCc2cccc(C(F)(F)F)c2)c1
2,.,O=C(NC(=O)C1CCNCC1)c1cc2c(s1)CSC2
-110,.,COC(=O)CCN1C(=O)/C(=C\c2ccc(N(C)C)cc2)SC1=S
8,.,CC1CCC(C#N)(N(C)C(=O)CSc2nc(C3CC3)n(-c3ccccc3)n2)CC1 (stereo not given)
3,.,O=C(CSc1ccc2c(c1)OCCO2)N1CCc2ccccc21
2,.,CC1=NCCCN1C(=O)c1c(-c2c(Cl)cccc2Cl)noc1C
-14,0.9,O=C(CSc1ccccn1)N1CCCc2ccccc21
-6,.,O=c1cc(CN2CC(O)Cc3ccc4ccccc4c32)nc2sccn12 (stereo not given)
-23,.,CCC(COc1nnnc2ccccc12)NC(=O)C1CCN(S(C)(=O)=O)CC1 (stereo not given)
.,-1.4,Cc1nc(CSc2n[nH]c(=O)n2Cc2ccccc2)cs1
-9,.,O=C(COC(=O)C1CCN(C(=O)Nc2ccccc2)CC1)Nc1ccc2c(c1)OCO2
-7,.,Cc1cc(/C=N/N2CCOCC2)c(C)n1-c1cccc2ccccc12
-1,0.3,Cc1sc2nc(SCC(=O)N(CCO)CCO)n(C3CCCCC3)c(=O)c2c1C
.,-0.6,CC(C)(C)NNC(=S)Nc1cccc(Cl)c1
.,-0.2,O=c1oc2ccccc2c(O)c1C=Nc1ccc(C(F)(F)F)cc1
-3,.,Cc1nn(-c2ccccc2)nc1CNS(=O)(=O)c1ccc(-c2ccno2)s1

# (further entries)
S aureus helic,MgrA DNA FP,canonical_smiles
2,0.0,CNC(=O)CCc1cn(Cc2ccccc2Cl)c2ccccc12
-15,.,CN(CC(=O)O)c1ncnc2sccc12
.,0.1,CCOC(=O)/C(=N/O)C1=NN=C(N)SC1
14,.,CCOc1cc2c(=O)[nH]c3c(C(=O)NCc4ccco4)sc(=S)n3c2cc1OCC
0,.,COC(=O)c1ccc(COc2coc(CN3CCc4ccccc4C3)cc2=O)cc1
16,.,COC(=O)c1ccc(NC(=O)CSc2nnc3sc4ccccc4n23)cc1
-5,.,O=C(NCc1ccco1)c1cc(S(=O)(=O)NCc2ccco2)c[nH]1
3,.,O=C(Nc1nc2ccc(Br)cc2s1)c1cc2ccccc2o1
-15,.,O=C(Nn1cnnc1)c1ccc(OC(F)(F)C(F)C(F)(F)F)cc1 (stereo not given)
20,.,O=C(CSc1nnc(CNC(=O)c2ccco2)o1)NCc1ccc2c(c1)OCO2
.,-1.2,Cc1ccc2snc(C(N)=O)c2c1
12,-0.7,OC(CN1CCC(Cc2ccccc2)CC1)CN1CCN(c2cccc(C(F)(F)F)c2)CC1 (stereo not given)
.,0.8,O=C(OC1=CC(=O)c2cccc3cccc1c23)c1ccccc1
-9,.,CC(C)NC(=S)NN(c1ccccc1)c1ccccc1
15,.,CC(=O)Nc1ccc(S(=O)(=O)N2CCN=C2SCc2c(F)cccc2Cl)cc1
4,.,CCc1c(C)[nH]c(C(=O)OC(C)(C)C)c1C
18,-3.2,O=C(NC1CCCCC1NC(=O)c1ccccc1Cl)c1ccccc1Cl (stereo not given)
.,-1.9&-0.4,COc1cc(C(=O)NCc2ccc(OCCN(C)C)cc2)cc(OC)c1OC
.,0.2,CCc1cccc(C(C)C)c1NS(=O)(=O)c1ccc(C)cc1
4,0.2,CC(=O)NC(=S)Nc1cccc(-c2nc3c(ccc4ccccc43)o2)c1
-7,.,Cc1ccc(NCC(O)COc2ccc(OCc3ccccc3)cc2)cc1 (stereo not given)
-60,.,CCOC(=O)c1sc(N)c(C#N)c1CSc1nc2sc3c(c2c(=O)n1C)CCCC3
14,-1.1,COc1ccc(CNC(=O)C2CC(O)CN2C(=O)Nc2ccccc2)cc1 (stereo not given)
-18,.,O=C(CC(NCC1CCCO1)C(=O)O)Nc1cccc(Cl)c1Cl (stereo not given)

# Entries from the list above that contain two or more sulfur atoms (19):
S aureus helic,MgrA DNA FP,canonical_smiles
7,0.4,CC1CCc2c(sc3nc(SCC(=O)Nc4c[nH]c(=O)[nH]c4=O)[nH]c(=O)c23)C1 (stereo not given)
-4,.,Cc1ccccc1NC(=O)Cc1nc(CSc2nnnn2C)cs1
7,.,Cc1nc2sccn2c(=O)c1S(=O)(=O)N1CCC(Cc2ccccc2)CC1
12,6.0,O=S(=O)(Nc1cc(Sc2cccc3cccnc23)c(O)c2ccccc12)c1ccc(Cl)cc1
14,.,O=C1c2ccccc2C(=O)N1CSc1nnc(Cc2cccs2)n1CCc1ccccc1
-1,-0.5,CN1CCN(S(=O)(=O)c2cccc(S(=O)(=O)c3ccc(Cl)c(Cl)c3)c2)CC1
.,1.7,Cc1cccc(NC(=S)NNC(=O)CSCc2cccc3ccccc23)c1
6,0.7,NC(=O)CSc1nc2c(sc3ccccc32)c(=O)n1-c1ccccc1
9,-0.4,CCSC(=S)NC1CCS(=O)(=O)C1 (stereo not given)
-10,.,Cc1ccc(/C=C2/SC(=S)N(c3ccc(S(N)(=O)=O)cc3)C2=O)o1
2,.,O=C(NC(=O)C1CCNCC1)c1cc2c(s1)CSC2
-110,.,COC(=O)CCN1C(=O)/C(=C\c2ccc(N(C)C)cc2)SC1=S
.,-1.4,Cc1nc(CSc2n[nH]c(=O)n2Cc2ccccc2)cs1
-1,0.3,Cc1sc2nc(SCC(=O)N(CCO)CCO)n(C3CCCCC3)c(=O)c2c1C
-3,.,Cc1nn(-c2ccccc2)nc1CNS(=O)(=O)c1ccc(-c2ccno2)s1
14,.,CCOc1cc2c(=O)[nH]c3c(C(=O)NCc4ccco4)sc(=S)n3c2cc1OCC
16,.,COC(=O)c1ccc(NC(=O)CSc2nnc3sc4ccccc4n23)cc1
15,.,CC(=O)Nc1ccc(S(=O)(=O)N2CCN=C2SCc2c(F)cccc2Cl)cc1
-60,.,CCOC(=O)c1sc(N)c(C#N)c1CSc1nc2sc3c(c2c(=O)n1C)CCCC3

# The list is partial. The share of hits here may be higher or lower than overall.
